Polio RdRp inh = poliovirus RNA polymerase inhibition; P03300; poliovirus polymerase elongation, fluorescence polarization; stronger effect = lower value; % elongation, % (compound at 16.7 µg/mL); 0.66% of 150,000 active; AID 588519; in the data active = % elongation below about 90%; also: some results filed as inactive read as strong as hits
Target sequence (P03300 1749-2209 limits assumed): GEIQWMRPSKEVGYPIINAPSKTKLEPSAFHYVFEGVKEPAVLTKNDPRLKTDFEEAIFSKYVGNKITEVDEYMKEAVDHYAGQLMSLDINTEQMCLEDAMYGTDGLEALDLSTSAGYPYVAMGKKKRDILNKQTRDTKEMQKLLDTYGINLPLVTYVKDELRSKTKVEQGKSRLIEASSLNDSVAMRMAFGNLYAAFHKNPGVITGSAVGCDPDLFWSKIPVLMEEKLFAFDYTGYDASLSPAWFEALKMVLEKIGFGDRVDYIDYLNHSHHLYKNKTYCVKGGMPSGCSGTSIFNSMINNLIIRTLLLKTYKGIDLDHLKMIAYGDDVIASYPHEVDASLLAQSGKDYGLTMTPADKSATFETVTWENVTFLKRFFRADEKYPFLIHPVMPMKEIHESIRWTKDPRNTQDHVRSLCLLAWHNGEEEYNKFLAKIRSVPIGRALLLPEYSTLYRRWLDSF
Polio RdRp inh intensity = recorded beside Polio RdRp inh, whose call it bears; % elongation; measured here: total intensity read-out; formula for this scale not given here;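 total fluorescence in place of polarization; lower means less elongation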
Starred values were filed as active, the others as inactive.

SMILES	Polio RdRp inh	Polio RdRp inh intensity
O=C(CCn1c(=O)c2ccccc2n(Cc2cccc(F)c2)c1=O)NCc1ccc2c(c1)OCO2	109	112
CCc1ccc(OCCn2c(C3CC(=O)N(Cc4ccc(F)cc4)C3)nc3ccccc32)cc1 (configuration not stated)	111	117
CCn1cc(S(=O)(=O)c2cccc(Cl)c2)c(=O)c2cc(F)c(N3CCN(C)CC3)cc21	106	101
O=C(Cn1cc(C(=O)C2CC2)c2ccccc21)Nc1ccc(Br)cc1	107	109
O=C(Nc1ccc(Cl)cc1Cl)c1cc(S(=O)(=O)N2CCN(c3ccccc3F)CC2)ccc1F	110	112
CCCS(=O)(=O)N1CCCC(C(=O)NCCCOC)C1 (configuration not stated)	107	109
Cc1cc(C)c2c(=O)c3c(oc2c1)C(=O)N(Cc1ccco1)C3c1ccccc1F (configuration not stated)	112	103
COc1cccc(-n2c(-c3ccco3)nc3c(cnn3-c3ccc(Cl)cc3)c2=O)c1	103	101
CC1CCN(S(=O)(=O)c2ccc3c(c2)N(CC(=O)N(C)Cc2ccccc2)C(=O)CO3)CC1	121	119
COCCCNC(=O)c1sc2nc(C)c(C(=O)Nc3ccc(Cl)cc3)c(-c3ccc(Br)cc3)c2c1N	105	105
O=C(NCC(c1cccnc1)N1CCc2ccccc21)C(=O)Nc1ccccc1F (configuration not stated)	105	98
COc1ccc(NC(=O)CSc2nc3ncccc3[nH]2)c(OC)c1	112	108
COc1ccc(C2=CC(c3cc(Br)ccc3F)n3c(nc4ccccc43)N2)cc1 (configuration not stated)	104	123
CCOC(=O)c1ccc(NC(=O)CCCn2c(=O)c3cccn3c3cccnc32)cc1	111	112
O=C(COCc1cc(-c2cccs2)on1)Nc1cccc(Cl)c1Cl	108	113
Cc1cc(C)cc(NC(=O)CCc2c(C)nc3c(c2C)c(=O)n(C)c(=O)n3C)c1	108	110
COc1ccc(NC(=O)CN(Cc2ccccc2)S(=O)(=O)c2ccc3nc(C)sc3c2)cc1	102	111
Cc1ccccc1NC(=O)Cn1cc(S(=O)(=O)N2CCCC2)c(S(=O)(=O)N2CCCC2)c1	109	103
CCn1ccc2cc(S(=O)(=O)N3CCC(C(=O)NCCc4ccc(SC)cc4)CC3)ccc21	103	107
Cc1ccc(NC(=O)CCCn2c(=O)c3cccn3c3cccnc32)c(Cl)c1	105	105

Quoted from the listing:
`O=C(COCc1cc(-c2cccs2)on1)Nc1cccc(Cl)c1Cl` | Polio RdRp inh intensity = 113
`Cc1ccc(NC(=O)CCCn2c(=O)c3cccn3c3cccnc32)c(Cl)c1` | Polio RdRp inh intensity = 105

(cont.)
SMILES	Polio RdRp inh	Polio RdRp inh intensity
CCOc1ccc(C(=O)c2c(N)c(-c3nc(-c4ccc(OCC)cc4)cs3)c3ccccn23)cc1	107	109
CCOc1ccc(-c2cc3c(=O)n(Cc4nc(-c5ccc(OC)cc5OC)oc4C)ccn3n2)cc1Cl	102	101
N#Cc1c[nH]n2c(NC3CCCCC3)c(-c3ccccc3F)nc12	107	108
COc1ccccc1CNC(=O)c1cc(S(=O)(=O)N2CCCCCC2)cn1C	115	105
Cc1cccc(NC(=O)CSc2c(C)cnc3c2c(=O)n(C)c(=O)n3C)c1C	105	103
COc1ccc(-c2nc(S(=O)(=O)c3ccccc3)c(N3CCCCC3)o2)cc1	107	111
Cc1ccccc1CSc1ncc(CO)n1Cc1ccc(F)cc1	108	107
O=C(NCc1cccc(F)c1)c1cccc(NC(=O)c2nsc3ccccc23)c1	112	118
COc1cccc(CNC(=O)CN2N=C(c3ccc(C)cc3)CCC2=O)c1	110	114
Cc1cc(C)cc(NC(=O)CSc2oc(-c3cccs3)nc2S(=O)(=O)c2ccccc2)c1	109	111
CCC1CCCCN1S(=O)(=O)c1cc2c3c(c1)CC(=O)N3CCC2 (configuration not stated)	100	106
Cc1cn(C)c(CC(=O)Nc2cccc(C#N)c2)c1C(=O)O	105	112
COc1ccc(OC)c(NC(=O)COCc2cc(-c3ccco3)on2)c1	108	109
CCOc1ccc(NC(=O)N2CCN(Cc3cc(=O)n4nc(-c5ccc(OC)cc5)sc4n3)CC2)cc1	106	109
CCN(C(=O)C1CCN(S(=O)(=O)c2c(C)noc2/C=C/c2ccc(C)cc2)CC1)c1cccc(C)c1	106	112
Cc1ccc(Cl)cc1N1CCN(CCNC(=O)Nc2ccc(Cl)cc2)CC1	108	108
O=C(Nc1ccc2nc(SCCOc3ccccc3)sc2c1)c1ccco1	110	104
COc1ccc(CCNC(=O)c2ccc(-n3c(C)cc4c3CCCC4)cc2)cc1OC	105	106
COC(=O)c1cc2sccc2n1Cc1nc(-c2ccc(Cl)cc2)oc1C	108	115
Cc1ccc(S(=O)(=O)Nc2cc3c(cc2N2CCOCC2)n(C)c(=O)n3C)cc1	106	107
Cc1cc(NC(=O)c2cnc3c(-c4ccccc4)c(C)nn3c2C)ccc1Br	108	112
CCOC(=O)c1ccc(NC(=O)c2cccn(Cc3ccccc3F)c2=O)cc1	107	110
COc1ccc(Nc2ncc(C(=O)N3CCN(c4ccc(F)cc4)CC3)c3ccccc23)cc1	104	108
Cc1ccccc1-c1nc(CS(=O)(=O)CC(=O)NCCCc2ccccc2)c(C)o1	104	99
COC(=O)CN1C(=O)C(C)(C)c2cc(S(=O)(=O)NCc3ccc(Cl)cc3)ccc21	107	107
CC1(C)O[C@H]2[C@@H](O1)[C@@H](C(=O)Nc1ccccc1C(F)(F)F)O[C@@H]1OC(C)(C)O[C@@H]12	108	112
CCCCN(CCCC)C(=O)c1c[nH]c2ccc(S(=O)(=O)Nc3cccc(Cl)c3C)cc2c1=O	99	103
COc1ccc(NC(=O)CCS(=O)(=O)c2ccc3c(c2)oc(=O)n3C)cc1OC	107	100
Cc1nc2nncn2c(Nc2ccccc2)c1C	105	108
Cc1c(C(=O)Nc2ccccc2F)sc2nc3n(c(=O)c12)CCC3	105	116
Cc1ccccc1Nc1ncnc2c1cnn2C	100	108
Cc1ccc(C)c(NC(=O)CCc2nc3cccnc3n2Cc2cccs2)c1	105	111
CCOC(=O)c1ccc(NC(=O)CC2Nc3cc(C)c(C)cc3NC2=O)cc1 (configuration not stated)	108	111
COc1ccc(C2=NN(S(C)(=O)=O)C(c3cn(-c4ccccc4)nc3-c3cccs3)C2)cc1 (configuration not stated)	106	110
Cc1ccc([N+](=O)[O-])cc1S(=O)(=O)N1CCn2cccc2C1c1ccccc1 (configuration not stated)	112	107
CC(C)OCCCNC(=O)CCCn1c(SCC(N)=O)nc2c(sc3ccccc32)c1=O	107	111
Cc1ccc(NC(=O)Cn2c(=O)oc3ccccc32)cc1C	99	95
Cc1cccc(CNC(=O)CN2C(=O)C3CCCCN3c3ccc(C(=O)N4CCCC4)cc32)c1 (configuration not stated)	108	117
Cc1ccc(Oc2c(C(F)(F)F)oc3c(CN4CCCCC4C)c(O)ccc3c2=O)cc1 (configuration not stated)	102	104
CCC(CC)C(=O)Nc1cc(-c2ccccc2F)nn1-c1ccccc1	107	106
COc1ccc(CNC(=O)Cc2c(C)c3cc4c(C)coc4c(C)c3oc2=O)cc1	115	115
Fc1ccccc1-c1nc(N2CCN(c3cccc(Cl)c3)CC2)c2ccccc2n1	106	106
CCc1ccccc1Nc1cc(C(=O)NC(C)c2ccccc2)c2ccccc2n1 (configuration not stated)	109	110
O=C(Nc1nnc(S(=O)(=O)N2CCc3ccccc32)s1)c1ccccc1Cl	116	116
COc1ccc(-n2c(=O)c3c(c4cc(OC)ccc4n3C)n(C)c2=O)cc1	104	107
COc1ccc(NC(=O)Cn2c(=O)c3cccn3c3ccccc32)cc1	109	108
Cc1ccc(S(=O)(=O)C(CNC(=O)C(=O)NCCc2ccc(Cl)cc2)c2ccco2)cc1 (configuration not stated)	104	101
COc1ccc2c(CNCCc3ccco3)c(C(=O)O)n(Cc3ccc(F)cc3)c2c1	113	115
CC(C)(C)c1ccc(C(=O)Nc2nnc3n2CCS3)cc1	111	115
COc1ccccc1NC(=O)CSc1cn(CC(=O)N2CCCC2)c2ccccc12	111	105
(continued)
SMILES	Polio RdRp inh	Polio RdRp inh intensity
CCc1ccc(S(=O)(=O)c2nnn3c2nc(NC2CCCC2)c2sccc23)cc1	111	112
Cc1ccc(CNC(=O)Cn2c(=O)n(-c3cccc(Cl)c3)c(=O)c3sc4ccccc4c32)cc1	107	112
COc1ccccc1N1CCN(c2ccc(-c3nc(-c4ccccc4)no3)cc2[N+](=O)[O-])CC1	112	116
COc1ccc(-c2nc(C)c(CCNC(=O)c3ccc(F)c(F)c3)s2)cc1	111	114
CCc1ccc(-n2c(=O)c3c(C)c(C)sc3n(CC(=O)NCc3ccc(C)cc3)c2=O)cc1	111	108
COc1ccc(S(=O)(=O)c2c(O)c(C)cc(NS(=O)(=O)c3ccc(Cl)cc3)c2C(C)C)cc1	103	108
O=C(NC1CCCC1)c1ccc(CSc2nc3cccnc3n2Cc2ccccc2)cc1	108	114
COc1ccccc1NC(=O)c1oc2ccccc2c1NC(=O)COc1ccccc1OC	107	107
COc1ccc(CNC(=O)Cn2c(=O)oc3cc(S(=O)(=O)NCc4ccccc4)ccc32)cc1	108	98
O=C(NCc1ccc(Cl)cc1)C1CCN(c2nn3cc(-c4ccc(F)cc4)nc3s2)CC1	104	101

Quoted from the results shown (17 entries):
SMILES	Polio RdRp inh	Polio RdRp inh intensity
COc1ccc(CNC(=O)Cc2c(C)c3cc4c(C)coc4c(C)c3oc2=O)cc1	115	115
Fc1ccccc1-c1nc(N2CCN(c3cccc(Cl)c3)CC2)c2ccccc2n1	106	106
CCc1ccccc1Nc1cc(C(=O)NC(C)c2ccccc2)c2ccccc2n1 (configuration not stated)	109	110
O=C(Nc1nnc(S(=O)(=O)N2CCc3ccccc32)s1)c1ccccc1Cl	116	116
COc1ccc(-n2c(=O)c3c(c4cc(OC)ccc4n3C)n(C)c2=O)cc1	104	107
COc1ccc(NC(=O)Cn2c(=O)c3cccn3c3ccccc32)cc1	109	108
Cc1ccc(S(=O)(=O)C(CNC(=O)C(=O)NCCc2ccc(Cl)cc2)c2ccco2)cc1 (configuration not stated)	104	101
COc1ccc2c(CNCCc3ccco3)c(C(=O)O)n(Cc3ccc(F)cc3)c2c1	113	115
CC(C)(C)c1ccc(C(=O)Nc2nnc3n2CCS3)cc1	111	115
COc1ccccc1NC(=O)CSc1cn(CC(=O)N2CCCC2)c2ccccc12	111	105
CCc1ccc(S(=O)(=O)c2nnn3c2nc(NC2CCCC2)c2sccc23)cc1	111	112
Cc1ccc(CNC(=O)Cn2c(=O)n(-c3cccc(Cl)c3)c(=O)c3sc4ccccc4c32)cc1	107	112
COc1ccccc1N1CCN(c2ccc(-c3nc(-c4ccccc4)no3)cc2[N+](=O)[O-])CC1	112	116
COc1ccc(-c2nc(C)c(CCNC(=O)c3ccc(F)c(F)c3)s2)cc1	111	114
CCc1ccc(-n2c(=O)c3c(C)c(C)sc3n(CC(=O)NCc3ccc(C)cc3)c2=O)cc1	111	108
COc1ccc(S(=O)(=O)c2c(O)c(C)cc(NS(=O)(=O)c3ccc(Cl)cc3)c2C(C)C)cc1	103	108
O=C(NC1CCCC1)c1ccc(CSc2nc3cccnc3n2Cc2ccccc2)cc1	108	114

(next part)
SMILES	Polio RdRp inh	Polio RdRp inh intensity
Cc1ccc(-n2nc(C(=O)Nc3cccc(C#N)c3)c3c4ccccc4n(C)c3c2=O)cc1	108	101
CC(C)c1ccc(C2=CC(c3ccc(C(C)C)cc3)n3nnnc3N2)cc1 (configuration not stated)	101	80
Cc1ccc(NC(=O)c2cc(S(=O)(=O)NCCc3ccc(Cl)cc3)ccc2F)cc1	112	108
Cc1cccc(NC(=O)Cn2nc(-c3ccc(Cl)cc3)c3ccccc3c2=O)c1	108	102
CCc1ccc(NC(=O)Cn2c(=O)n(CCCCC(=O)NCc3ccc4c(c3)OCO4)c(=O)c3ccccc32)cc1	110	113
CCOc1ccc(-n2c(SCC(=O)Nc3ccccc3OC)nc3c(oc4ccccc43)c2=O)cc1	102	103
O=C(Nc1ccccc1)c1cccc(S(=O)(=O)Nc2cccc(F)c2)c1	106	111
CCC(=O)N1CCc2cc(Br)cc(S(=O)(=O)CCC(=O)N(C)c3cccc(C)c3)c21	103	106
Cc1onc(-c2c(F)cccc2Cl)c1C(=O)Nc1ccc(OC(C)C)cc1	109	113
O=C(c1ccco1)c1cn(CCOc2ccc(F)cc2)c2ccccc12	106	109
CCc1ccc(-c2nn(CC(=O)NC3CCCCC3)c3c2cnc2ccc(F)cc23)cc1	100	102
Cc1cccc(N2CCN(Cc3nnc(-c4ccc5c(c4)OCO5)o3)CC2)c1C	105	106
Cc1ccc(-c2nc3ccc(Cl)cn3c2Nc2ccccc2C)s1	111	114
Cc1cccc(CNC(=O)Cc2ccc(NC(=O)N3CCCCc4ccccc43)cc2)c1	108	112
COc1cccc(NC(=O)Cn2c(=O)n(Cc3ccc(C(=O)NCc4ccc5c(c4)OCO5)cc3)c(=O)c3ccccc32)c1	109	112
COc1ccc(S(=O)(=O)c2cc3cc(C(C)(C)C)cc(O)c3oc2=O)cc1	102	104
O=C(O)COc1ccccc1C1Nc2ccccc2-c2nnc(SCc3ccc(Cl)cc3)nc2O1 (configuration not stated)	104	107
CCn1c(=O)n(-c2ccc(F)cc2)c(=O)c2sc3ccccc3c21	109	111
CC(=O)N1CCC(N(Cc2ccco2)C(=O)Nc2ccc(C)c(Cl)c2)CC1	105	99
COC(=O)c1ccccc1NC(=O)c1oc2ccc3c(c2c1C)C(=O)CC(C)(C)O3	107	115
COc1ccccc1NC(=O)CSc1nc(O)c(C/C=C/c2ccccc2)c(=O)[nH]1	97	111
COc1ccc2c(c1)c(CC(=O)Nc1cccc(F)c1C)c(C)n2C(=O)c1ccc(Cl)cc1	107	106
CCc1ccc(C(=O)c2cn(CC(=O)Nc3cccc(OC)c3)c3cc4c(cc3c2=O)OCO4)cc1	108	111
COc1cc(Cl)c(NC(=O)c2cc(S(=O)(=O)N3CCCCC3)c[nH]2)c(OC)c1	103	96
CCc1nn2c(=O)cc(COC(=O)COc3ccc(OC)cc3)nc2s1	99	99

Assay outcomes: PubChem BioAssay, ICCB-Longwood Screening Facility, Harvard Medical School

These rows are one share of the data; the hit share may differ from the screen's.
